# H5N1 CPE = MDCK cell protection from H5N1 avian flu; cytopathic effect, luminescence, 72 h; hits give high values; no value below 0 was filed and about half of the inactive calls have no number; reference of the scale not given here; AID 740; inhibition, % at 50 µM; 96,000 tested, 0.07% active; in the data active = inhibition above about 25%
# Starred values were filed as active, the others as inactive; i = inactive. Only part of the results is shown (hit frequency here may not be typical).
SMILES,H5N1 CPE
O=C(N/C(=C\c1cccs1)C(=O)N1CCCCCC1)c1ccccc1,i
O=C(Cc1cn2ccsc2n1)Nc1nc2c(s1)CN(Cc1ccccc1)CC2,1.0
O=S(=O)(NC1CC1)c1ccc(S(=O)(=O)N(Cc2ccccn2)C2CCCC2)cc1,i
C=CCSC1=C(C#N)C(c2cccc(OC)c2)CC(=O)N1 (stereo not drawn),i
C=CCn1c(O)c(C(CC)=NCc2cc(OC)cc(OC)c2)c(=O)[nH]c1=O,i
CCn1cc(C(=O)NCc2ccc3c(c2)OCO3)c(=O)c2cc(F)c(N3CCN(C(=O)c4ccco4)CC3)cc21,i
O=C(Cc1ccc(F)cc1)NC1CCCC1,i
COc1ccc(OC)c(Nc2cc(C)nc3nc(C)nn23)c1,1.4
O=C(CSCCc1ccccn1)Nc1cccnc1,0.2
Cc1ccc(CSc2ncccc2C(=O)O)cc1,0.3
CC1(C)Oc2ccc(C(=O)NC3CCCC3)cc2N(CC(=O)N2CCOCC2)C1=O,i
CCCn1cc(NC(=O)c2cc(-c3ccccc3)on2)cn1,i
CCC1CCCCN1C(=O)CSc1nnc(-c2c[nH]c3ccccc23)o1 (stereo not drawn),i
O=S(=O)(c1cc(Cl)ccc1Cl)N1CCNCC1,1.3
C/C(=N\OC(=O)c1ccc(OC(C)C)cc1)c1ccc(C)c(C)c1,0.0
O=C(Nc1ccccc1N1CCCC1)c1ccc2c(c1)OCO2,i
CCOC(=O)C1=C(SCC(=O)Nc2ccccc2)NC(=O)C(C#N)C12CCCCC2 (stereo not drawn),0.6
CCOc1cc(C)c(Cl)cc1S(=O)(=O)NCc1ccco1,7.5
O=C(OCC(=O)N1CCN(C(=O)c2ccco2)CC1)c1ccc(S(=O)(=O)N2CCCCC2)cc1,i
COc1cccc(-n2ccnc2SCC(=O)N2CCc3ccccc32)c1,1.5
NC(=O)COc1cccc2cccnc12,i
O=C(Oc1ccc(-c2nnco2)cc1)N1CCCCC1,0.2
COc1ccc(C2/C(=C(/O)c3ccccc3)C(=O)C(=O)N2CO)cc1 (stereo not drawn),i
COc1ccc(N/C=C/C(=O)c2ccc(Oc3ncccn3)cc2)cc1,i
CCOC(=O)Cc1csc(NC(=O)C2C3C=CC(C3)C2C(=O)O)n1 (stereo not drawn),0.2
O=C(NC1CCCCC1)c1cccc(Cn2cc(Cl)cn2)c1,i
CCC(C)NC(=O)CSc1nc2ccccc2c(=O)n1Cc1ccc(OC)cc1 (stereo not drawn),0.3
CCOc1ccc(-c2nc(CSCC(=O)NCc3ccco3)c(C)o2)cc1,i
CCOCCCNC(=O)CCCOc1ccccc1,0.2
O=C(c1ccc(F)cc1)N1C2CCC1CC(O)(c1ccc(F)cc1)C2 (stereo not drawn),1.0
C/C(=N\NC(=O)c1cccc(C)c1)c1cccc(NC(=O)c2ccco2)c1,0.4
Cc1ccc(C2CC(C(F)(F)F)n3nc(C(=O)NCCN4CCOCC4)cc3N2)cc1 (stereo not drawn),0.1
O=S(=O)(Nc1ccc(N2CCOCC2)cc1)c1ccc2ccccc2c1,0.2
CCN(CC)c1ccc(NC(=O)CN2CCN(CC(=O)Nc3ccccc3F)CC2)cc1,i
O=C(Nc1ccc2c(c1)OCO2)c1ccncc1,i
c1ccc(C2=NNC(=NC3CC3)SC2)cc1,i
CCOc1ccc2nc(NC(=O)CSc3ccc(Cl)cc3)sc2c1,0.5
CC(C)(C)NC(=O)C1CCCN(S(=O)(=O)c2cccc3cccnc23)C1 (stereo not drawn),3.7
O=C1CC2CS(=O)(=O)CC2N1c1ccc(Cl)cc1Cl (stereo not drawn),i
Cc1cccc(CSc2nnc(-c3cccs3)n2Cc2ccco2)c1,2.7
COC(=O)C1C(=O)c2c(n[nH]c2C)CC1(C)C (stereo not drawn),i
C/C(=N\c1nc2ccccc2n1C)c1cc(Cl)ccc1O,i
Cc1ccc(CN(c2ccc(C(=O)N3CCCC3)cc2)S(C)(=O)=O)cc1,0.3
CC1(C)CC(=O)C2=C(C1)OC1=C(C(=O)CC(C)(C)C1)C2c1ccc(O)cc1O,i
COc1ccc(NC(=O)CSc2nnc(-c3ccoc3C)n2CCc2ccccc2)cc1,i
CC(C)(C)NS(=O)(=O)c1ccc(-c2csnn2)s1,0.1
Cc1ccc(NC(=O)CSCC(=O)Nc2ccc(N3CCOCC3)c(Cl)c2)cc1,2.0
Cc1ccc2nc(SCC(=O)Nc3cccc([N+](=O)[O-])c3)[nH]c2c1,2.9
CCOC(=O)N1CCC(NC(=O)C2CCCN(Cc3nc(-c4cccc(Cl)c4)oc3C)C2)CC1 (stereo not drawn),0.1
O=C1NC(=O)C2(Cc3ccccc3N3CCCC32)C(=O)N1Cc1ccccc1 (stereo not drawn),0.4

# Nothing new here: 18 of the compounds above.
SMILES,H5N1 CPE
CCn1cc(C(=O)NCc2ccc3c(c2)OCO3)c(=O)c2cc(F)c(N3CCN(C(=O)c4ccco4)CC3)cc21,i
O=C(Cc1ccc(F)cc1)NC1CCCC1,i
COc1ccc(OC)c(Nc2cc(C)nc3nc(C)nn23)c1,1.4
O=C(CSCCc1ccccn1)Nc1cccnc1,0.2
Cc1ccc(CSc2ncccc2C(=O)O)cc1,0.3
CC1(C)Oc2ccc(C(=O)NC3CCCC3)cc2N(CC(=O)N2CCOCC2)C1=O,i
CCCn1cc(NC(=O)c2cc(-c3ccccc3)on2)cn1,i
CCC1CCCCN1C(=O)CSc1nnc(-c2c[nH]c3ccccc23)o1 (stereo not drawn),i
O=S(=O)(c1cc(Cl)ccc1Cl)N1CCNCC1,1.3
C/C(=N\OC(=O)c1ccc(OC(C)C)cc1)c1ccc(C)c(C)c1,0.0
O=C(Nc1ccccc1N1CCCC1)c1ccc2c(c1)OCO2,i
CCOC(=O)C1=C(SCC(=O)Nc2ccccc2)NC(=O)C(C#N)C12CCCCC2 (stereo not drawn),0.6
CCOc1cc(C)c(Cl)cc1S(=O)(=O)NCc1ccco1,7.5
O=C(OCC(=O)N1CCN(C(=O)c2ccco2)CC1)c1ccc(S(=O)(=O)N2CCCCC2)cc1,i
COc1cccc(-n2ccnc2SCC(=O)N2CCc3ccccc32)c1,1.5
NC(=O)COc1cccc2cccnc12,i
O=C(Oc1ccc(-c2nnco2)cc1)N1CCCCC1,0.2
COc1ccc(C2/C(=C(/O)c3ccccc3)C(=O)C(=O)N2CO)cc1 (stereo not drawn),i

# Continuation:
SMILES,H5N1 CPE
Cc1cc(NC(=O)Nc2cccc3ccccc23)no1,i
COc1cc(C(=O)Sc2ccc(C)cc2)cc(OC)c1OC,i
CSc1nc(=O)n2cccc(C)c2n1,0.2
C/C(=N/OC(=O)c1ccc(C)cc1)c1cccs1,i
NC(=O)CSc1ccc(Br)cc1,i
CN(C)CCOCCP(=O)(c1ccccc1)c1ccccc1,i
CC(=O)N1CCN=C1SCc1ccc(Cl)cc1,4.6
Cn1c(=O)c2c(nc(NCCNC(=O)c3ccco3)n2Cc2ccccc2Cl)n(C)c1=O,1.3
O=c1[nH]ncc(N/N=C/c2ccccc2)c1Cl,i
Cc1cc2c(c(=O)n1Cc1ccco1)C(c1cccnc1)C(C#N)=C(N)O2 (stereo not drawn),0.4
CCC(OC(=O)c1ccco1)C(=O)NCc1ccco1 (stereo not drawn),i
Cn1c(SCC(=O)c2cccs2)nnc1-c1ccco1,1.0
Cc1cccc2cc(-c3nc4c(C)cccn4c3NCc3ccco3)c(=O)[nH]c12,i
CSc1ccccc1NC(=O)CN(c1cccc(C)c1)S(C)(=O)=O,1.0
Cc1ccc(C(CC(=O)NCc2ccco2)c2ccccc2)c(O)c1 (stereo not drawn),0.1
CC(C)(C)n1nnnc1C(c1cc2cc3c(cc2[nH]c1=O)OCCO3)N1CCSCC1 (stereo not drawn),i
Clc1ccc(-c2nnc(-c3ccc(Br)cc3)c(N3CCSCC3)n2)cc1,i
COC(=O)Nc1cc(C)nc2ccccc12,1.0
CN(C)S(=O)(=O)N(CC(=O)Nc1cccc(F)c1)c1ccccc1,0.2
O=C(NCc1cccnc1)NC1(c2ccccc2)CC1,1.9
O=c1/c(=C/c2ccc([N+](=O)[O-])cc2)sc2n1CCCN=2,i
FC(F)(F)c1cnc(Oc2ccccc2-c2nnco2)c(Cl)c1,1.8
Cc1cc(N(CN2CCCC2=O)C(=O)c2ccccc2)no1,i
COc1ccccc1NC(=O)CCNC(=O)Cn1ccc2ccccc2c1=O,0.0
O=c1cc(CSc2ccccn2)c2ccccc2[nH]1,i
NCCCP(=O)(O)CCc1ccccc1,0.1
Cn1c(SCc2cccc(C(F)(F)F)c2)nnc1-c1ccco1,i
O=C(Nc1ccc(Cl)c(Cl)c1)N(Cc1cccnc1)Cc1ccco1,0.2
CN1CCN(C(=O)CN(CCc2ccccc2)S(C)(=O)=O)CC1,i
COc1ccc(NC(=O)C2CCCN(S(=O)(=O)c3cccc4cccnc34)C2)c(OC)c1 (stereo not drawn),2.4
CC(C)CN(C(=O)CSc1nnc2ccccn12)c1c(N)n(CC(C)C)c(=O)[nH]c1=O,0.2
CC1CCCN(CCC(=O)c2ccc(Br)cc2)C1 (stereo not drawn),i
O=C(COC(=O)c1ccc(O)cc1)Nc1ccc(N2CCCCC2)cc1,i
COc1ccc(C(c2nnnn2Cc2ccc(F)cc2)N2CCN(c3ccc(OC)cc3)CC2)cc1 (stereo not drawn),0.8
CCCn1c(SCC(=O)Nc2nc3ccccc3s2)nc2c1c(=O)n(C)c(=O)n2C,1.6
COc1ccc2cc(CCNC(=O)C3CC3)c(=O)[nH]c2c1,i
CC(=O)c1ccc(NC(=O)Nc2ncn(Cc3cccc(C)c3)n2)cc1,i
N=c1c[n+](-c2ccc(Cl)cc2)[n-]o1,i
CCCn1cnc2c(c1=O)c1nc3ccccc3nc1n2CCC1=CCCCC1,0.2
O=C(NC(Cc1c[nH]c2ccccc12)C(=O)O)c1ccccc1 (stereo not drawn),0.2
Cc1ccc(N2C(=O)S/C(=C/c3cn(C)c4ccccc34)C2=O)cc1,i
Cc1ccc(SCc2cc(=O)[nH]c(N3CCCCC3)n2)cc1,0.6
CSc1nc2nccc(/C=C\c3ccccc3)n2n1,2.6
Cc1nc(Cl)c(C#N)cc1-c1ccccc1,0.8
Cc1cccc(NC(=S)N2CCC(c3nc4ccccc4s3)CC2)c1,i
O=C(NCCSc1ccccc1)c1cncc(Br)c1,1.0
CCOc1ccc(C(C)(C)C)cc1S(=O)(=O)N1CCOCC1,1.1
COc1cc(C(=O)Nc2cccc3cccnc23)cc(OC)c1OC,i
FC(F)(F)c1cc(-c2ccccc2)nc(N2CCCCC2)n1,i
CCCC(=O)Nc1nn(C)c2nc3c(C)cccc3cc12,1.8
# Later entries
SMILES,H5N1 CPE
O=C(NC1CCCCC1)C1CC=CCC1C(=O)OCC(Cl)=C(Cl)Cl (stereo not drawn),1.1
CCCOc1ccc(-c2nc(OCC)c3ccccc3n2)cc1,i
O=C1COc2ccc(C(=O)COC(=O)CCc3ccc(S(=O)(=O)N4CCOCC4)cc3)cc2N1,i
COCCn1c(-c2ccccc2)cnc1N,0.2
CN1CCN(Cc2ccc(Br)s2)CC1,i
C=CCN1C(=O)C(Cc2ccc(OC)cc2)S/C1=N\N=C\c1cccs1 (stereo not drawn),i
Cc1ccccc1S(=O)(=O)Cc1ccc(C(=O)O)o1,0.1
Cc1nc(NCc2ccc3c(c2)OCO3)c2nnn(Cc3ccccc3)c2n1,2.8
COc1ccc(-n2c(COc3cccc4ccccc34)nnc2SCC(=O)NCc2ccco2)cc1,0.1
O=C(CSc1nnnn1-c1ccccc1)Nc1ncc2c(n1)CC(c1ccco1)CC2=O (stereo not drawn),9.4
O=C(Nc1ncccn1)C1CCCN1S(=O)(=O)c1ccc(Cl)c(Cl)c1 (stereo not drawn),i
CCOC(=O)c1cc(NC(=O)OC)c(C)nc1C,1.1
CC(C)(C)OC(=O)N[C@@H](Cc1ccccc1)C(=O)N1CCC(C(=O)O)CC1,i
COc1cc2sc(C)nc2c2sccc12,0.1
O=C(Nc1ccc2nc(-c3ccco3)[nH]c2c1)c1cccs1,2.4
COc1ccc(N2C(=O)NC3CC2(C)Oc2ccc(Br)cc23)cc1OC (stereo not drawn),i
c1ccc(Oc2nc(NCc3ccco3)nc(NCc3ccco3)n2)cc1,5.4
CCn1c(CNC(=O)c2ccco2)nnc1SCC(=O)Nc1cc(C(F)(F)F)ccc1Cl,i
COc1cc(C(=O)Nc2nccs2)c(Br)c(OC)c1OC,i
COc1ccc(S(=O)(=O)N2CCN(S(=O)(=O)c3ccc4c(c3)OCCO4)CC2)cc1C,2.9

# Taken from the results shown for reference:
SMILES,H5N1 CPE
COc1cc(C(=O)Nc2nccs2)c(Br)c(OC)c1OC,i
COc1ccc(S(=O)(=O)N2CCN(S(=O)(=O)c3ccc4c(c3)OCCO4)CC2)cc1C,2.9

# The list goes on:
SMILES,H5N1 CPE
Cc1c(NC(=O)c2ccc3c4c(cccc24)CC3)c(=O)n(-c2ccccc2)n1C,0.1
COc1cc(OC)c(C2C(C#N)=C(N)OC3=C2C(=O)CC(C)C3)cc1OC (stereo not drawn),i
Cc1cc2cc(CCNC(=O)CC(C)(C)C)c(=O)[nH]c2cc1C,0.6
O=C(NC12CCC(O)C(SC1)/C2=N/O)c1ccccc1 (stereo not drawn),0.8
O=C1Nc2cc(S(=O)(=O)N3CCCC3)ccc2N2CCCC12 (stereo not drawn),1.4
COc1ccc(NC(=O)C2CC(c3ccc(OC)c(OC)c3)=NO2)cc1OC (stereo not drawn),0.3
Cc1cc(N2CCN(c3nc4ccccc4s3)CC2)n2ncnc2n1,i
Cc1nnc(SCC(=O)N(Cc2ccccc2)C(C)C)n1-c1ccccc1,1.3
Cc1cccc2cc(CN(Cc3cccnc3)C(=O)c3ccncc3)c(=O)[nH]c12,0.9
CCOc1ccccc1C1C(C#N)=C(N)Oc2cc(N)ccc21 (stereo not drawn),0.2
CC1(C)Cc2cccc(OCC(=O)N3CCN(S(=O)(=O)c4ccccc4F)CC3)c2O1,0.4
O=C(CN1CCN(c2nc(-c3ccc(Cl)cc3)cs2)CC1)NCc1ccco1,i
O=C(NCCCn1ccnc1)C1CC2CCC1C2 (stereo not drawn),0.1
O=c1[nH]nc(Cc2ccc(-c3cccc(Cl)c3)o2)c2ccccc12,1.9
CC1CCN(CCc2nc3cc(NC(=O)Nc4ccccc4)ccc3n2C)CC1,i
Cc1nc(-c2ccccc2)sc1-c1nc(-c2cccnc2)ncc1S(=O)(=O)c1ccccc1,2.1
Cc1ccc(S(=O)(=O)N(C)c2ccc(OCC(=O)O)cc2)cc1,i
Fc1ccc(CSc2nnc(-c3cc4c(s3)-c3ccccc3CC4)o2)cc1,i
CC(=O)c1c(C(C)=O)c(C)n(NC(=O)c2cccnc2)c1C,i

# Screening results (PubChem)
